Source: PubChem
CBX7 AlphaScr: CBX7 chromodomain binding inhibitors, primary screen, biochemical, AlphaScreen; Chromobox protein homolog 7 (Homo sapiens), O95931; AlphaScreen His6-CBX7 / biotin-H3K27me3 peptide binding; active compounds read low; normalised signal (fraction of DMSO) (concentration not given with the values); 66,000 compounds, 1.1% hits; in the data active means normalised signal below about 0.5;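 further: 100 nL library stock added to about 20 µL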
Target sequence (O95931 whole entry, looked up): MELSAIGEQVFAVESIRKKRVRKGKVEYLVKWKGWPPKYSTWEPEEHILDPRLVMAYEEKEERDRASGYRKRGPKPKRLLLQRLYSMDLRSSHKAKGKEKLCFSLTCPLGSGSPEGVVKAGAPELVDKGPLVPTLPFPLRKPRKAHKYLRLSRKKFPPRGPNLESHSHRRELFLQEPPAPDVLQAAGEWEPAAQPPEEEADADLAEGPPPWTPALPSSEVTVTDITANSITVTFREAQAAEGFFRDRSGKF
CBX7 AlphaScr z-score: further read-out of CBX7 AlphaScr, marked with its call; z-score; measured here: z-score of CBX7 signal; some inactives read as strong as hits; reference of the scale not given here;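 same signal on another scale; lower means less binding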
* marks the source's active call; other numbers are inactive results. An excerpt; count on the stated rates, not on these rows.

mol,CBX7 AlphaScr,CBX7 AlphaScr z-score
COc1ccc(-n2nc(C(=O)NCC(=O)NC3CCCCC3)c3ccccc3c2=O)cc1,0.998,-0.0406
O=c1c2c(nc(NCCCO)n1-c1ccccc1)-c1ccccc1CC21CCCCC1,1.13,1.56
Cc1ccc2cc(CCNC(=O)c3ccc(S(=O)(=O)N(C)C)cc3)c(=O)[nH]c2c1,1.06,2
Cc1ccc(S(=O)(=O)C2(C(=O)Nc3ccc(Br)c(C)c3)CC2)cc1,1.08,1.4
O=C(CCc1nc(-c2cccs2)no1)Nc1ccc(F)c(Cl)c1,0.958,-0.693
CCOC(=O)c1c(C)n(-c2ccc(C)cc2)c2ccc(OCC(O)CNCCc3ccccc3)cc12 (stereo not given),1.05,0.435
CCCCNC(=O)c1ccc(CNS(=O)(=O)c2ccc(C)cc2)cc1,1.04,0.537
Cc1ccc(NC(=O)C2CCCN(c3nnc(-n4cccc4)s3)C2)c(Cl)c1 (stereo not given),0.957,-0.946
CCc1cccc(-n2c(C)nc3c(cnn3-c3ccc(Cl)cc3)c2=O)c1,0.968,-0.491
Cc1ccccc1OCCCC(=O)Nc1ccc(S(=O)(=O)Nc2ncccn2)cc1,0.84,-3.18
CCc1ccc2c(c1)c(=O)c(S(=O)(=O)c1ccc(F)cc1)cn2CC(=O)Nc1ccccc1OC,0.815,-3.04
CCn1c(SCC(=O)Nc2cc(C)cc(C)c2)nnc1-c1c[nH]c2ccccc12,1.15,0.985
Cc1nc(NCCCN2CCOCC2)c2c3c(sc2n1)CCC3,1.23,2.21
Cc1ccc2c(c1)NC(=O)C(CC(=O)NCCCOC(C)C)O2 (stereo not given),1.03,1.21
COc1cccc(NC(=O)c2c(-c3ccccc3Cl)noc2C)c1,0.94,-0.375
CCn1cc(C(=O)N2CCC(C)CC2)c2cc(OC)c(OC)cc2c1=O,1.01,0.0941
Cc1cc(C)cc(N2CC(c3nc4ccccc4n3CCC(C)C)CC2=O)c1 (stereo not given),0.842,-0.683
Cc1cc(NS(=O)(=O)c2ccc(Nc3nc(-c4cccs4)cs3)cc2)no1,0.935,-1.28
COc1ccc(NC(=O)c2sc3ncn(CC(=O)N4CCC(C)CC4)c(=O)c3c2C)cc1OC,0.935,-0.696
CN(C)c1cc(NC(=O)CN2CCC(C(N)=O)CC2)c2ccccc2n1,1.31,0.638
O=C(NCc1ccccn1)C1CC(c2ccc(F)cc2)=NO1 (stereo not given),1.03,1
O=C(CCc1nc(-c2ccccc2F)no1)NC1CCCC1,1.07,2.5
Cc1c(C(=O)N2CCOCC2)sc2ncn(CC(=O)N3CCC(C)CC3)c(=O)c12,1.11,1.18
CCOC(=O)c1cnc2c(OC)cccc2c1Nc1ccc(F)cc1F,0.828,-2.97
Cc1cc(Cl)ccc1OCC(=O)Nc1ccc(-c2nc3cccnc3o2)cc1,1.01,0.327
CCOC(=O)c1ccccc1NC(=O)CCc1c(C)nc2cc(-c3cccc(F)c3)nn2c1C,1.08,1.28
O=C(NCCc1ccccc1)c1ccc2c(c1)N(Cc1ccccc1F)C(=O)c1ccccc1S2,0.993,-0.333
O=c1cc(Cc2nnc(SCc3ccccc3)n2-c2ccc(F)cc2)[nH]c(=O)[nH]1,1.01,0.384
FC(F)(F)c1nc2ccccc2nc1N1CCc2ccccc2C1,1.36,10.9
Cc1cccc(-c2cc(C(=O)N3CCN(c4ncccn4)CC3)c3ccccc3n2)c1,1.03,0.86
COc1cccc(/C=C/c2nc3ccccc3c(=O)n2-c2cccc(C(F)(F)F)c2)c1OC,0.902,-0.0976
Cc1nc2ncnn2c(C)c1CCC(=O)NC1CCN(Cc2ccccc2)CC1,0.769,-4.6
Fc1ccc(CN2CCN(Cc3ccc4ccccc4c3)CC2)cc1,0.773,-2.72
CCCNC(=O)c1cc(-c2ccc(Br)cc2)on1,1.03,0.957
Cc1ccc2c(c1)C(c1ccccc1)N(C(=O)c1ccccc1C(F)(F)F)CC(=O)N2 (stereo not given),0.999,-0.0307
COc1ccc2c(c1)CCc1c(C(=O)N3CCc4ccccc4C3)noc1-2,1.05,0.532
COc1cccc(C2=NOC(C(=O)N3CCN(c4ccccc4)CC3)C2)c1 (stereo not given),0.872,-1.72
COc1ccccc1CNC(=O)c1oc2ccc(S(=O)(=O)N3CC(C)CC(C)C3)cc2c1C (stereo not given),0.788,-2.14
COc1ccc(OCc2nc(C#N)c(NCC(C)C)o2)cc1,0.936,-0.397
CC(=O)Nc1ccc(N2C(=O)CC(N3CCN(c4ccccn4)CC3)C2=O)cc1 (stereo not given),1,0.0487
COc1ccccc1-c1nc(Nc2nc(C)cc(C)n2)n[nH]1,1.05,2.15
COc1cccc(-n2nc(C(=O)NCc3ccc(F)cc3)c3ccccc3c2=O)c1,0.959,-0.568
Cc1ccccc1N1C(=O)CC(c2c[nH]c3ccccc23)C1=O (stereo not given),0.895,-0.241
COc1ccc(Cn2c(-c3ccc(C)cc3)cc3c2CC(C)(C)CC3=O)cc1,0.795,-1.33
Cc1cc(-c2nc3ncccc3o2)ccc1NC(=O)CC(C)C,1.06,2.29
CCN(CC)S(=O)(=O)c1ccc2oc(C(=O)Nc3c(C)cccc3Cl)c(C)c2c1,1.06,2.39
CCn1cc(C(=O)Nc2ccc(C(=O)OC)cc2)c(=O)c2ccc(C)nc21,1.01,0.0869
CCOc1ccc2nc(Nc3nc(C)c(Cc4ccccc4)c(=O)[nH]3)nc(C)c2c1,0.838,-1.92
Cc1ccccc1Nc1cc(C(=O)NCc2ccc3c(c2)OCO3)c2ccccc2n1,1.03,0.537
CC(C)N1C(=O)CCC1C(=O)NCCCN1CCOCC1 (stereo not given),1.04,0.805

Next structures.
mol,CBX7 AlphaScr,CBX7 AlphaScr z-score
CCOc1ccc(N2C(=O)c3nccnc3C2=O)cc1,0.989,-0.141
CCN1CCN(C(c2cccs2)C(C)NS(=O)(=O)c2ccc(F)cc2)CC1 (stereo not given),0.99,-0.234
Cc1cc(C(=O)Nc2cc(C(F)(F)F)ccc2Cl)no1,1.05,0.936
COc1ccc(Cc2noc(/C=C/c3ccc(C)cc3)n2)cc1OC,1.1,1.11
CCC(C)NC(=O)c1cc(-c2ccc(Br)cc2)on1 (stereo not given),1.01,0.396
Cn1c(SCC(=O)Nc2ccc(F)cc2)nnc1-c1c[nH]c2ccccc12,0.937,-0.602
CCc1ccc(-c2csc(Nc3ccc(S(N)(=O)=O)cc3)n2)cc1,0.797,-2.01
CCc1ccc(NC(=O)Cn2cc(S(=O)(=O)c3ccc(C)cc3)c(=O)c3cc(Cl)ccc32)cc1,1.06,0.903
CCCc1nnc(NC(=O)Nc2ccccc2Cl)s1,0.959,-0.817
CC1CCN(CCCNC(=O)c2cn(C3CCCC3)c(=O)c3c2c2ccccc2n3C)CC1,0.986,-0.404
Cc1ccc(C(=O)NCCc2c(C)[nH]c3ccccc23)cc1,0.695,-5.53
CCCSCCCNC(=O)c1ccc2c(c1)N(Cc1ccc(Cl)cc1)CCS2,0.99,-0.341
CCOc1ccccc1CNC(=O)c1cc(=O)[nH]c2ccc(S(=O)(=O)N3CCOCC3)cc12,0.983,-0.19
CC(=O)N1CCc2cc(S(=O)(=O)N(CCc3ccccc3)Cc3ccccc3)ccc21,0.781,-0.884
COc1cccc(-c2cc(C(F)(F)F)nc(NCc3ccc(Cl)cc3)n2)c1,1.52,24.8
COc1cccc(-c2nn(C)c3sc(C(=O)N4CCN(c5ccccc5OC)CC4)cc23)c1,0.747,-3.26
O=C(NC1CC1)c1ccc2c(c1)N(Cc1ccccc1)C(=O)c1ccccc1S2,0.83,-1.68
CCCN(CCC)CCNC(=O)CCC(=O)Nc1ccc2nc(N3CCN(C)CC3)cc(C)c2c1,1.07,1.24
COc1ccc(CCNC(=O)CSc2nnc(-c3c[nH]c4ccccc34)n2C)cc1OC,0.999,-0.0133
O=C1CN(C(=O)c2ccc3c(c2)OCO3)C(c2ccccc2)c2cc(F)ccc2N1 (stereo not given),0.942,-1.48
O=C(Nc1nc(-c2ccccn2)cs1)c1sc2ccccc2c1Cl,0.85,-1.7
C=CCn1c(CCCNC(=O)c2ccc(Cl)cc2)nc2ccccc21,1.12,1.24
Cc1nn(Cc2ccccc2)c(C)c1NC(=O)c1cc(-c2ccc(F)cc2)on1,1.02,0.871
COc1ccc(NC(=O)CCc2nc(-c3ccccc3F)no2)cc1OC,0.836,-2.53
CC(C)c1ccc(NC(=O)Cn2nc(Cc3cccnc3)c3ccccc3c2=O)cc1,0.857,-0.188
COc1ccccc1-c1c(C(F)(F)F)oc2c(CN3CC(C)OC(C)C3)c(O)ccc2c1=O (stereo not given),1.03,0.486
CN1C(=O)CSc2ccc(NC(=O)NCc3cccnc3)cc21,0.984,-0.423
Cc1ccc(CCNS(=O)(=O)c2ccc3c(c2)CCN3C(=O)C2CCC2)cc1,1,0.11
COc1cccc(CNS(=O)(=O)c2ccc3c(c2)CCN3C(=O)C2CC2)c1,1.23,2.62
Cc1ccc2c(c1)C(c1ccccc1)=NNC(c1ccccc1)=N2,1.04,1.46
O=C(NCCOc1cccc(Cl)c1Cl)C(Cc1ccc(O)cc1)c1ccccc1 (stereo not given),0.918,-1.19
Cc1ccn2c(NC(=O)COc3ccccc3)c(-c3cccs3)nc2c1,1.16,1.58
Cn1c(SCC(=O)NCc2ccccc2)nnc1-c1ccc(C(C)(C)C)cc1,0.971,-0.393
COC(=O)c1cc(N2C(=O)C3C4C=CC(C4=C(C)C)C3C2=O)ccc1Cl (stereo not given),1.09,2.19
CCc1ccccc1NC(=O)C(CC)n1nc(-c2ccc(OC)cc2)ccc1=O (stereo not given),1.08,2.28
O=C1c2ccccc2C(Nc2ccc(F)cc2F)N1c1cccnc1 (stereo not given),1.1,1.61
CC(C)c1ccc(Nc2cc(C(=O)NCCN3CCOCC3)c3ccccc3n2)cc1,1.12,0.119
COc1ccc(OC)c(Cc2nc3cc(C)c(C)cc3[nH]c2=O)c1,0.964,-1.09
COc1cccc(-c2nnc(SCC(=O)Nc3ccccc3F)n2-c2ccccc2)c1,0.962,-0.521
CCN(CC)S(=O)(=O)c1ccc2oc(C(=O)Nc3ccccc3Br)c(C)c2c1,1.04,1.52
Cc1ccccc1CN1C(=O)CSc2ccc(C(=O)NC3CCCCC3)cc21,1.08,0.737
Fc1ccc(NCc2nc3ccccc3n2CCOc2ccccc2)cc1,0.963,-1.36
CCN(CC)CCCNC(=O)c1ccc2c(c1)N(Cc1ccc(C)cc1)C(=O)c1ccccc1S2,1.54,2.17
COc1ccc(N2CCN(C(=O)C3CCCN3S(=O)(=O)c3ccc4c(c3)CCC(=O)N4)CC2)cc1 (stereo not given),0.982,-0.222
c1ccc(-c2nc(N3CCCC3)nc3ccccc23)cc1,0.871,-0.508
CC(C)NC(=O)c1ccc2c(c1)N(Cc1ccc(F)cc1)C(=O)c1ccccc1S2(=O)=O,1.01,0.114
COCCNC(=O)C1CCCN(Cc2nc(-c3cccc(C)c3)oc2C)C1 (stereo not given),0.996,-0.207
CCOc1ccccc1CN1C(=O)c2ccccc2C1C(=O)NC1CCCC1 (stereo not given),1.07,1.26
CC(C)N(CCCNC(=O)CN1C(=O)CC(C)(C)S(=O)(=O)c2ccccc21)Cc1ccccc1,1,-0.012
CCCOc1cccc(C(=O)N(Cc2ccc(OC)cc2)C2CCS(=O)(=O)C2)c1 (stereo not given),1.01,0.0139

Later entries:
mol,CBX7 AlphaScr,CBX7 AlphaScr z-score
CCN(C(=O)c1cc2c(s1)-c1ccccc1OC2)c1ccccc1,1.05,1.14
O=c1cc(Cc2nnc(SCc3ccccc3Cl)n2-c2ccccc2)[nH]c(=O)[nH]1,1.04,1.36
Cc1c(Cl)cccc1NC(=O)c1cnc2sccn2c1=O,1.17,2.39
COc1ccc(CCNC(=O)C2CCN(C(=O)c3cc4sccc4n3C)CC2)c(OC)c1,1.01,0.149
O=C(O)c1ccc(CSc2ncnc3nc[nH]c23)cc1,1.02,0.517
COc1cccc(C2=NOC(C(=O)Nc3ccc(C#N)cc3)C2)c1 (stereo not given),0.982,-0.244
O=C(O)CCNc1ncnc2ccccc12,1.02,0.245
CCN(CCCNC(=O)Cc1c(C(=O)O)[nH]c2ccccc12)c1cccc(C)c1,0.934,-1.47
COc1ccc(C2C(C(=O)NCCN(C)C)CCC(=O)N2c2ccc3c(c2)OCO3)cc1 (stereo not given),0.768,-2.52
COc1ccc(CNC(=O)CN2C(=O)CSc3ncccc32)cc1,1.01,0.341
c1ccc(CCCc2nc(-c3ccccn3)no2)cc1,1.03,0.997
COc1ccc(CCNC(=O)c2ccc3c(c2)N(Cc2c(F)cccc2Cl)C(=O)CS3)cc1OC,0.797,-2.01

Profiles from above.
CCN(C(=O)c1cc2c(s1)-c1ccccc1OC2)c1ccccc1 across the screens: CBX7 AlphaScr = 1.05; CBX7 AlphaScr z-score = 1.14
COc1cccc(C2=NOC(C(=O)Nc3ccc(C#N)cc3)C2)c1 (stereo not given) across the screens: CBX7 AlphaScr = 0.982; CBX7 AlphaScr z-score = -0.244
O=C(O)c1ccc(CSc2ncnc3nc[nH]c23)cc1 across the screens: CBX7 AlphaScr = 1.02; CBX7 AlphaScr z-score = 0.517
